Screening results from PubChem.
Choline anaer gr: growth inhibitors of anaerobic choline-fed gram-negatives, minimal medium, absorbance; Gram-negative bacterium anaerobic choline minimal medium; active compounds read low; many inactives read as strong as hits in the columns shown; calls only; 0.2% of 55,000 active;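 active = growth z-score on choline under -2 at 7 or 20 h with little or no fall on glycerol, limits in tiers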;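 also: stock transfer was 300 nL into about 50 µL; the organism is E. coli; final concentration not given here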
Choline anaer gr early: recorded beside Choline anaer gr, whose call it bears; z-score; measured here: choline growth z-score, timepoint 1;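 score of optical density at 7 h as mean of two plates; lower means less growth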
* = called active by the depositor; i = inactive; & = joins results of further samples. This is a subset; count on the stated rates, not on these rows.

Order of values: Choline anaer gr	Choline anaer gr early
> O=C1CC2(CCCC2)CC(=O)N1CCCCNCC1COc2ccccc2O1 (stereo unspecified)
  i	0.47
> CN(CCNC(=O)C1CCCN1c1nnc(N2CCCC2=O)s1)C1CCCCC1 (stereo unspecified)
  i	0.44
> CCCNC(=O)CCC(=O)N1Cc2cccc(OC)c2Oc2ncccc21
  i	-0.56
> CCOC(=O)c1cn(Cc2ccc(C)cc2C)c2nc(C)ccc2c1=O
  i	-0.93
> Cc1ccc(-c2nc3nc(C)cc(NCc4ccc5c(c4)OCO5)n3n2)cc1
  i	1.2
> CCc1onc(C)c1C1CCCN1Cc1cn(CC)c2ccccc12 (stereo unspecified)
  i	-0.58
> Fc1ccc(Oc2ccc(-c3noc(-c4cnccn4)n3)cc2)cc1
  i	0.05
> CN(c1ncnc2sc3c(c12)CCCC3)C1CCCCC1
  i	0.68
> Cn1c(=O)c2c(-c3ccc(F)cc3)ccnc2n(C)c1=O
  i	1
> O=C(Cn1nc2c3scc(-c4ccc(F)cc4)c3ncn2c1=O)Nc1ccc(Br)cc1
  i	0.19
> NS(=O)(=O)c1ccc(NC(=O)c2c[nH]c(=O)n(-c3ccccc3)c2=O)cc1
  i	-1.8
> Cc1c(C(=O)OCc2ccccc2)nnn1-c1ccc(Br)cc1
  i	0.31
> COc1cc(CSc2nc3c(cnn3-c3ccccc3)c(=O)[nH]2)cc(OC)c1
  i	0.41
> COC(=O)c1cc(S(=O)(=O)N2CCCC2C(=O)Nc2nc3ccc(OC)cc3s2)cn1C (stereo unspecified)
  i	-1.2
> Cc1cc2oc(C(=O)Nc3onc4c3CCCC4)c(C)c2cc1Cl
  i	0.6

Random excerpt: seven records from the list
Order of values: Choline anaer gr	Choline anaer gr early
> CCOC(=O)c1cn(Cc2ccc(C)cc2C)c2nc(C)ccc2c1=O
  i	-0.93
> O=C1CC2(CCCC2)CC(=O)N1CCCCNCC1COc2ccccc2O1 (stereo unspecified)
  i	0.47
> CCc1onc(C)c1C1CCCN1Cc1cn(CC)c2ccccc12 (stereo unspecified)
  i	-0.58
> NS(=O)(=O)c1ccc(NC(=O)c2c[nH]c(=O)n(-c3ccccc3)c2=O)cc1
  i	-1.8
> Cc1c(C(=O)OCc2ccccc2)nnn1-c1ccc(Br)cc1
  i	0.31
> COc1cc(CSc2nc3c(cnn3-c3ccccc3)c(=O)[nH]2)cc(OC)c1
  i	0.41
> O=C(Cn1nc2c3scc(-c4ccc(F)cc4)c3ncn2c1=O)Nc1ccc(Br)cc1
  i	0.19

Going on with the list:
Order of values: Choline anaer gr	Choline anaer gr early
> CCCc1cc(=O)n2[nH]c(CNc3cccc(Cl)c3)nc2n1
  i	-0.47
> CCn1c(=O)c(N2CCC(C(=O)NCc3ccccc3)CC2)nc2cccnc21
  i	-0.63
> COC(=O)Cn1nc2c(-c3nc(-c4ccc(Cl)cc4)no3)cccn2c1=O
  i	-1.3
> CCOC(=O)c1cc2n(n1)CC(C)(C(=O)NC1CCCCC1)N(c1ccc3c(c1)OCO3)C2=O (stereo unspecified)
  i	-1.5
> CN1CC(=O)N(CC(=O)NCCc2nc3ccccc3[nH]2)c2ccccc2C1=O
  i	-0.03
> CCCn1c(=O)c2ccc(C(=O)NC(C)C)cc2n2c(=O)n(CC(=O)NCc3ccccc3)nc12
  i	0.24
> CC(=O)Nc1ccc(NC(=O)C2CC(=O)N(CCc3c[nH]c4ccc(F)cc34)C2)cc1 (stereo unspecified)
  i	-1.7
> CCN1c2ccccc2-n2cccc2C12CCN(C(=O)Nc1ccccc1C)CC2
  i	-0.97
> Cn1nc(-c2ccccc2F)c2cc(C(=O)OCc3ccc(Cl)cc3)sc21
  i	1.2
> COc1cccc(-c2ccc(SCc3nc(-c4cc(OC)cc(OC)c4)no3)nn2)c1
  i	1.7
> O=C(Cc1ccccc1)Nc1ccc(-c2nc3ccccc3o2)cc1
  i	0.66
> COc1ccc(-c2noc(CSCC(=O)NCc3ccc(C)cc3)n2)cc1OC
  i	0.02
> Cn1c(SCc2cccc(Br)c2)nc2c(=O)[nH]cnc21
  i	0.01
> Cc1cc(F)ccc1NS(=O)(=O)c1c(C)sc(C)c1-c1cc(C(F)(F)F)on1
  i	0.81
> COc1ccc(C(=O)NC2=Nc3ccccc3N=C(C)C2c2ccccc2)cc1 (stereo unspecified)
  i	-0.96
> Cc1ccc(N2CCN(C(=O)c3sc4ncccc4c3-n3cccc3)CC2)c(C)c1
  i	0.22
> O=C(CCc1nc(CSc2nc3ccccc3[nH]2)no1)Nc1ccccc1
  i	-1.3
> O=S(=O)(c1ccc(F)cc1F)N1CCc2nc(-c3ccc(F)cc3)ncc2C1
  i	1
> O=C(OCC1CCCO1)c1ccc2c(c1)N(Cc1c(F)cccc1Cl)C(=O)c1ccccc1S2(=O)=O (stereo unspecified)
  i	1.9
> O=C1CC(c2cccc(O)c2)c2cc3c(cc2N1)OCCO3 (stereo unspecified)
  i	-1.1
> O=C(NCCCN1CCN(c2ccccc2)CC1)c1nnc(-c2ccccc2)o1
  i	-0.82
> Cc1ccc(S(=O)(=O)N2CCCC(C(=O)NCC(=O)N3CCCc4ccccc43)C2)cc1 (stereo unspecified)
  i	-0.37
> COc1ccc(Cn2c(CCC(=O)Nc3ccc(C)c(C)c3)nc3cccnc32)cc1
  i	0.47
> COc1ccc(-c2cc3c(=O)n(CC(=O)Nc4cccc(F)c4)ncn3n2)cc1
  i	-1.7
> Cn1c(=O)n(CCN2CCCCC2)c(=O)c2c1nc1n2CCCN1C1CCCCC1
  i	0.53
> Cc1nn(S(C)(=O)=O)c(C)c1S(=O)(=O)N1CCCC1
  i	-0.24
> CC1O[C@@H](OC2C(O)C[C@H](OC3C(O)C[C@H](OC4CC[C@@]5(C)[C@H](CC[C@@H]6[C@H]5CC(O)[C@]5(C)C(C7=CC(=O)OC7)CC[C@]65O)C4)OC3C)OC2C)CC(O)C1O (stereo partly specified)
  i	0.39
> COCCNC(=O)c1cc(NS(=O)(=O)c2ccc(Br)cc2)cnc1N1CCNCC1
  i	0.8
> Cc1ccsc1C1CC(=O)Nc2c1c(C)nn2-c1nc2ccccc2[nH]1 (stereo unspecified)
  i	1.3
> Cc1oc(-c2ccno2)cc1S(=O)(=O)NC(C)C
  i	-0.25
> c1ccc(CCc2nn3c(-c4ccccn4)nnc3s2)cc1
  i	-2.4
> O=C1COc2ccc(S(=O)(=O)N3CCCCC3)cc2N1Cc1noc(C2CCC2)n1
  i	1.1
> Cc1ccc(-c2nnc(SCc3cc(=O)n4oc(C)cc4n3)o2)cc1
  i	0.14
> Cc1ccccc1N1C(=O)C(Cc2ccccc2)N=C1N1CCN(C)CC1 (stereo unspecified)
  i	0.8
> Cc1cc(N2CCCC2)n2nc(CN3CCN(C(C)C)CC3)nc2n1
  i	-0.35
> COc1ccc(C2CC(=O)C3=C(C2)Nc2ccccc2NC3c2cccc(C)c2)cc1 (stereo unspecified)
  i	-0.4
> O=S(=O)(c1ccc(Cl)cc1)c1nc(-c2ccc(F)cc2)oc1NC1CC1
  i	0.21
> CC(=O)N1c2ccc(S(=O)(=O)N3CCCC3C(=O)NCc3ccc4c(c3)OCO4)cc2CC1C (stereo unspecified)
  i	-0.9
> Cc1ccc(NC(=O)CN(C)S(=O)(=O)c2ccc3c(c2)C(=O)NCC(=O)N3)c(C)c1
  i	0.31
> Cc1cccc(NC(=O)N2CCN(C(=O)c3nsc4ccccc34)CC2)c1C
  i	0.64
> O=C(NCCCN1CCC(Cc2ccccc2)CC1)Nc1ccccc1F
  i	-0.76
> COc1ccc(NC(=O)N2CCN(c3nc4ccccc4n4cccc34)CC2)cc1OC
  i	-0.17
> O=S(=O)(c1ccc(Br)cc1)N1CCN(c2ccc(N3CCOCC3)nn2)CC1
  i	-0.3
> N#CCSc1n[nH]c(=O)c2cc(-c3ccco3)nn12
  i	-0.65
> CCC(C)NC(=O)c1ccc(-c2nccc(Oc3cccc(OC)c3)n2)cc1 (stereo unspecified)
  i	0.27
> OC(c1cccc(F)c1)C1CCN(Cc2ccco2)CC1 (stereo unspecified)
  i	-0.22
> COc1ccc(C(=O)Nc2ccc(N3CCN(c4ccccc4Cl)CC3)c(C(=O)O)c2)cc1
  i	0.88
> O=S(=O)(c1ccccc1)c1nc(-c2ccccc2)oc1N1CCCC1
  i	-0.31
> CCc1c(N2CCOCC2)nc2n(c1=O)CCCS2
  i	1.1
> Cc1cc(C)cc(N2C(=O)c3cc4ccsc4n3CC2(C)C(=O)NC2CCCCC2)c1 (stereo unspecified)
  i	-0.56
> Cc1noc(C)c1C1CCCN1Cc1ccc(F)c(Br)c1 (stereo unspecified)
  i	0.22
> CC(C)CNC(=O)C1=CSCCO1
  i	0.49
> Clc1ccc(-c2noc(-c3cc(N4CCSCC4)nc4ccccc34)n2)cc1
  i	0.27
> O=C(Cc1c(Sc2cccc(F)c2)[nH]c2ccccc12)N1CCN(c2ccccn2)CC1
  i	-2.3
> Cc1ccc(NC(=O)n2ncc3c(C)cccc32)cc1F
  i	1.2
> O=C(NC1CCS(=O)(=O)C1)c1cc(-c2ccc3c(c2)OCCO3)on1 (stereo unspecified)
  i	0.43
> Cc1ccc(C)c(S(=O)(=O)Nc2cc(C(=O)O)cnc2N2CCCC2)c1
  i	0
> O=C(NCc1ccc2c(c1)OCO2)c1ccc(-c2noc(C3CCCC3)n2)cc1
  i	1.2
> CCOC(=O)c1c(NC(=O)CSc2nnc(CNC(=O)Cc3ccccc3)n2C)sc2c1CCCC2
  i	0.65
> COc1cccc(NC(=O)NCc2c(C)nn(-c3ccccc3)c2-n2cccc2)c1
  i	1.4

As a short view, part of the list above:
Order of values: Choline anaer gr	Choline anaer gr early
> Cc1ccc(C)c(S(=O)(=O)Nc2cc(C(=O)O)cnc2N2CCCC2)c1
  i	0
> O=C(NCc1ccc2c(c1)OCO2)c1ccc(-c2noc(C3CCCC3)n2)cc1
  i	1.2
> CCOC(=O)c1c(NC(=O)CSc2nnc(CNC(=O)Cc3ccccc3)n2C)sc2c1CCCC2
  i	0.65

Additional compounds follow:
Order of values: Choline anaer gr	Choline anaer gr early
> COc1ccc(Cl)cc1NC(=O)N1CCCN(c2nc3cc(Br)ccc3n3cccc23)CC1
  i	-0.22
> O=S(=O)(c1ccc(F)c(F)c1)N1CCC(n2cnc3cccnc32)CC1
  i	-1
> CCc1ccccc1NC(=O)Nc1ccc2c(c1)N(C(=O)c1ccc(C)cc1)CC2
  i	0.07
> Cc1ccc(S(=O)(=O)N2CCc3cc4ccccc4nc32)cc1
  i	1.1
> COc1ccc(C2=Nc3ccccc3N(Cc3ccccc3C)C(=O)C2)cc1
  i	1.8
> O=C(CCN(CCCN1CCOCC1)C(=O)c1ccc(F)c(Cl)c1)N1CCNCC1
  i	-2
> COc1cccc(NC(=O)c2nc(N3CCCC3)c3c(C)c(C)n(-c4ccccc4)c3n2)c1
  i	0.89
> CN(C)C(=O)c1ccc(N2CCNCC2)c(NS(=O)(=O)c2ccc(C3CCCCC3)cc2)c1
  i	0.58
> Cc1ccc2ncc(C(=O)Nc3ccc(F)cc3)c(=O)n2c1
  i	-0.55
> CC(C)CCn1nc2c(S(=O)(=O)N3CCOCC3)cccn2c1=O
  i	0.03
> CCN(CC)CCNc1cc(C)nc2c(-c3ccc(C)cc3)c(C(F)(F)F)nn12
  i	-1.3
> CCC(C(=O)NCCN1CCN(CC)CC1)N1C(=O)CCCc2ccccc21 (stereo unspecified)
  i	-0.4
> COc1ccc(NC(=O)CCc2c(C)n(C)c3cc(-c4ccccc4OC)nn3c2=O)c(OC)c1
  i	-0.13
> Cc1nnc(-c2c(C)[nH]c(C)c2S(=O)(=O)N2CCCC2)o1
  i	0.41
> NS(=O)(=O)c1ccc(CCNC(=O)c2nc(CS(=O)(=O)c3ccc(Cl)cc3)no2)cc1
  i	-1.2
> Cc1ccc(-c2ccc(N3CCCC(C(=O)NCCCN4CCOCC4)C3)nn2)cc1 (stereo unspecified)
  i	0.04
> CN(C)c1ccc(NC(=O)c2cn(C)c3c(=O)n(-c4ccccc4)c(=O)[nH]c23)cc1
  i	-0.25
> COc1ccc(-c2nc(C(N)=O)c3c(n2)n(-c2ccc4c(c2)OCO4)c(=O)n3C)cc1
  i	-0.56
> Cc1cc(-c2cc(S(=O)(=O)NCC(C)c3ccccc3)c(C)s2)n[nH]1 (stereo unspecified)
  i	0.01
> Cc1cc(F)ccc1NS(=O)(=O)c1cc(-c2nc(C)c(C)s2)sc1C
  i	-0.58
> CNC(=O)c1ccc(-c2nc(CN3CCN(C(=O)Nc4ccc(Cl)cc4)CC3)c(C)o2)cc1
  i	0.48
> O=C(c1cnc2ccccc2c1S(=O)(=O)c1ccc(Cl)cc1)N1CCCCC1
  i	-0.73
> CCCNC(=O)CCn1c(N(CC)CC)nc2ccsc2c1=O
  i	0.14
> O=C(CSc1nc(N2CCc3ccccc3C2)nc2ccccc12)NC1CCCC1
  i	-0.55
> Cc1ccc(NC(=O)c2ccc3c(c2)nnn3C)cc1
  i	1.6
> CCC(=O)Nc1ccccc1-c1nnc(SC(C)C(=O)Nc2ccccc2CC)[nH]c1=O (stereo unspecified)
  i	-0.5
> Cc1ccc(Cl)cc1NS(=O)(=O)c1cc(-c2nc(C)c(C)s2)sc1C
  i	0.13
> C[N+](C)(C)CCO
  i	0.42&0.53
> CCN1C(=O)CCc2cc(NS(=O)(=O)c3ccc(C)c(C)c3)ccc21
  i	-0.77
> O=C1Nc2ccccc2Oc2cc(Cl)c(S(=O)(=O)N3CCc4ccccc43)cc21
  i	-0.61
> COc1ccc(C2CC(=O)N(c3ccc(C)c(Cl)c3)C(=O)C2)cc1
  i	0.73
> CCN(CC)c1ncc2c(n1)CCC(C(=O)NCCOC)C2 (stereo unspecified)
  i	0.5
> O=C(Cc1ccc(NC(=O)N2CCCCc3ccccc32)cc1)NCc1ccccc1Cl
  i	0.09
> Cn1c(N2CCC(C(=O)N3CCCCC3)CC2)cc(=O)n(C)c1=O
  i	-1.7
> CC(=O)Nc1ccc(C(=O)NCCn2c(-c3ccccc3)nc3ccccc32)cc1
  i	-0.37
